Assay outcomes: PubChem, several laboratories
RecA intein inh: Mtb RecA intein splicing inhibition; actives 0.75% (n = 290,000); AID 2221; cell-free RecA intein splicing, fluorescence; inhibition, %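 (about 9 µM by stock and volumes)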; P9WHJ3; in the data active = inhibition above about 30%; inconclusive = no clear call, values can overlap the other calls;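 note: 0% = vehicle wells and 100% = reference inhibitor control wells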
Target sequence (P9WHJ3 whole entry, looked up): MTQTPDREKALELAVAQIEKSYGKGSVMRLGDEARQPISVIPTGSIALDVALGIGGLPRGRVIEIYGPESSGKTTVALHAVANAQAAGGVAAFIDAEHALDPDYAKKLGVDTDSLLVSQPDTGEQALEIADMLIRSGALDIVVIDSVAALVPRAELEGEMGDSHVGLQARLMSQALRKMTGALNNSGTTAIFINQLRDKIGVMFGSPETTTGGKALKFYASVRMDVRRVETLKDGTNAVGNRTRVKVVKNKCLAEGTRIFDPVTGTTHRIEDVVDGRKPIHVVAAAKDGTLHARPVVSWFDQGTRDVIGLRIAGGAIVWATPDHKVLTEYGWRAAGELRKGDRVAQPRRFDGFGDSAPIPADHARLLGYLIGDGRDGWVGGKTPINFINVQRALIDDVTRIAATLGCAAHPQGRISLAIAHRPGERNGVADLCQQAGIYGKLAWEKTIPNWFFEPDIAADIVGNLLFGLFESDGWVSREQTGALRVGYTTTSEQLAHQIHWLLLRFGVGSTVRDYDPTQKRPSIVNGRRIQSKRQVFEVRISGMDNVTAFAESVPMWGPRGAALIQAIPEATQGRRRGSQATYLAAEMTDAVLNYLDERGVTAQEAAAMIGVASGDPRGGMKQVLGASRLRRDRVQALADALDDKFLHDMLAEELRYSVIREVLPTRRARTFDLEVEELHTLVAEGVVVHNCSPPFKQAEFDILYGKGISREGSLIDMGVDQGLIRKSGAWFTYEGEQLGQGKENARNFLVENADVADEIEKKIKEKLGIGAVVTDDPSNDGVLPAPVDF
Mtb bLac sens: beta-lactam sensitization of Mtb H37Rv | actives 0.27% (n = 330,000) | M. tuberculosis H37Rv growth with meropenem, percent inhibition; hits of this screen are not shown here | AID 434955 | inhibition, % at 25 µM;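 active = about 74% or more and at least 40 points above the plate without the antibiotic, then above 30% in a dose series; inconclusive = first-round hits that could not be retested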;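 note: growth measured after seven days incubation then overnight dye step; 0% = bacteria only wells and 100% = bacteria with antibiotic; twin plates without the antibiotic show which effects depend on it; some results filed as inactive read as strong as hits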
Mtb growth: M. tuberculosis H37Rv growth inhibitors, H37Rv strain (AID 1626) | M. tuberculosis H37Rv growth inhibition; higher % means a stronger effect | one-dose inhibition, % at 10 µM; IC50 in µM for titrated hits | actives 0.95% (n = 220,000);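 active = confirmed in a dose series; inconclusive = inhibition above 80% but not taken into the dose series; inactive = below 80% or under 30% at every dose of the series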;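 note: bacteria incubated seven days before Alamar blue readout; 0% = bacteria only wells and 100% = bacteria with antibiotic wells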
YopH inh: YopH (Yersinia) phosphatase inhibition | actives 0.16% (n = 140,000) | inhibition, %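 (about 10 µM by stock and volumes)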 | fluorescence Ex485/Em525;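 active = inhibition of 50% or more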;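 note: controls were vehicle for no effect and minimum signal wells for full effect; inactives centre near -20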
Arbovirus inh: antivirals against arbovirus infection; arbovirus infection cell-based antiviral screen; inhibition, % at 10 µM; actives 0.37% (n = 200,000); AID 1251;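 active = inhibition from about 30%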;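 note: bluetongue infection of BSR cells; cell survival read as ATP light after 72 h; 0% = infected wells without compound and 100% = uninfected wells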
Arbovirus inh repeat: recorded beside Arbovirus inh, whose call it bears; inhibition, %; measured here: 10K subset replicate screen; many hits read low in the repeat;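 first of two repeat runs on a subset; 0% = infected and 100% = uninfected wells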
* marks the source's active call; other numbers are inactive results; ? = inconclusive; . = not tested or not shown; & = joins results of further samples. The list is partial; the hit share may differ from the screen's.

SMILES	RecA intein inh	Mtb bLac sens	Mtb growth	YopH inh	Arbovirus inh	others
CC1CC(C)(C)NC(=S)N1CCC(=O)N1CCc2ccccc2C1 (configuration not stated)	.	-9	-1%	.	5
COc1ccc(S(=O)(=O)N(CC(=O)Nc2cc(C)on2)Cc2ccccc2)cc1	0.5	5	13%	-14	-6
CCSc1ncnc2sc3c(c12)CCC3	0.7	-1	-3%	-21	5
CSCC[C@H](NC(=O)Nc1cccc(Br)c1)C(=O)O	1.9	-2	-5%	.	.
O=[N+]([O-])c1ccc(CN2CCCCCC2)s1	-5.3	-1	5%	-7	-6
O=C(Nc1ccc(Br)c(Cl)c1)C1CC1	2.6	0	57%	-23	1
O=C(NCCc1ccccc1)c1cccc(N2C(=O)C3CC=CCC3C2=O)c1 (configuration not stated)	-0.2	-6	-14%	.	17
CCCCC1CC(CSC(=N)N)OC1=O (configuration not stated)	1.9	-9	-7%	-28	-5
CCOc1ccc(NC(=S)N2CCC(N(C)CC3CCCO3)CC2)cc1 (configuration not stated)	0.2	0	4%	-28	-2
CCN(c1ccccc1C)S(=O)(=O)c1nnc(NC(=O)c2ccco2)s1	2.4	4	.	.	.
Cn1c(-c2sccc2OCc2ccc(Cl)cc2Cl)n[nH]c1=S	.	-2	6%	.	-2
CC(C)CNS(=O)(=O)c1ccc(CCC(=O)NCc2ccco2)cc1	2.1	1	1%	9	11
COc1ccc(C(=O)NCc2nnc(SCC(=O)Nc3nc4ccccc4s3)o2)cc1OC	-1.3	2	2%	-7	0
O=[N+]([O-])c1cccc(C(=Nc2cccc(Cl)c2)NO)c1	13	4	0%	-17	1
CCC[N+](CC#Cc1ccccc1)(CCC)CC(=O)OCC	-1.2	1	-9%	-30	4
CC(C)c1ccc(-c2cc(C(=O)N3N=C(C(F)F)CC3(O)C(F)F)c3ccccc3n2)cc1 (configuration not stated)	4.5	88	15%	-8	-29
Cc1ccccc1Cn1nc(C)c(NC(=O)c2cc3nc(-c4ccco4)cc(C(F)(F)F)n3n2)c1C	.	.	?	-38	-1
COCCn1c(SCC(=O)NCc2ccc3c(c2)OCO3)nnc1C(C)C	0.2	1	.	.	.
O=C(CCCn1c(=S)[nH]c2ccccc2c1=O)NC1CCCC1	-0.9	9	-2%	-39	-7
O=C(NNc1c(Cl)cccc1Cl)c1cccs1	-2.4	-5	-14%	.	.
CCCCn1c(N)c(N(CC)C(=O)C(c2ccccc2)c2ccccc2)c(=O)[nH]c1=O	-0.2	3	4%	.	5
COc1ccc(NC(=O)CC2C(=O)N(c3ccc(F)cc3)C(=S)N2NC(=O)c2ccc(Cl)cc2)cc1 (configuration not stated)	0.5	-3	-8%	2	12
Cc1ccc(-c2nnc(SCC(=O)NNC(=O)COc3cccc4ccccc34)n2C)cc1	-1.7	-4	-2%	-9	-1
O=C(O)COc1ccccc1-c1ccccc1	.	-4	-2%	.	.
COc1cccc(N2C(=O)C(CC(=O)Nc3ccccc3)N(C3CCCCC3)C2=O)c1 (configuration not stated)	0.0	.	-2%	-52	3

The list continues:
SMILES	RecA intein inh	Mtb bLac sens	Mtb growth	YopH inh	Arbovirus inh	others
CCOC(=O)C1CCCN(Cc2cc(=O)oc3cc(C)c(C(C)C)cc23)C1 (configuration not stated)	12	-1	-4%	.	0
CCn1c(SCC(=O)Nc2ccc3c(c2)OCCO3)nc2c(c1=O)SC(C)C2 (configuration not stated)	-0.9	-10	.	-33	-1
Cc1ccc(CNC(=O)CSc2nccn(-c3ccc(C)c(F)c3)c2=O)cc1	-0.8	4	.	.	.
CN(C)CCOc1cc(Cl)cc(Cl)c1	0.3	5	2%	.	-1
Cc1ccccc1Cn1nc(C)c(NC(=O)c2noc3c2CCCC3)c1C	4.0	23	1%	-8	3
O=C(NCc1cccnc1)C(=O)NCC1OCCN1S(=O)(=O)c1ccc(Cl)cc1 (configuration not stated)	0.8	-6	0%	-8	-6
COc1ccc(C(CNC(=O)c2ccc(NS(=O)(=O)c3cccc([N+](=O)[O-])c3)cc2)N2CCOCC2)cc1 (configuration not stated)	-2.3	-7	.	.	.
Cc1ccc(Cn2c(SCC(=O)NCC3CCCO3)nc3c(sc4ccccc43)c2=O)cc1 (configuration not stated)	-1.4	2	.	-7	-4
CC(C)[C@H](NS(=O)(=O)c1ccc2c(c1)OCCO2)C(=O)OCC(=O)Nc1ccccc1	0.5	5	-4%	-34	8
Cc1ccc(S(=O)(=O)N2CCN(c3ccc(C(F)(F)F)cc3[N+](=O)[O-])CC2)cc1	7.1	17	8%	-6	14
Oc1ccc(C2NCc3ccccc3-n3cccc32)cc1Cl (configuration not stated)	3.3&-1.0	-6&-4	11%&6%	12	-1&14
CCN(CC)c1ccc(C(=O)Nc2cccc(F)c2)cc1	6.3	9	-3%	-40	-14
Cn1nc(-c2ccccc2)cc1NC(=O)Nc1ccc(C(C)(C)C)cc1	3.2	46	9%	.	.
Nc1ccc(S(=O)(=O)N2CCc3ccccc32)cc1	2.5	3	.	.	.
Cc1ccc(NC(=O)CCCCCCCCCCC2COCCO2)c(C)c1 (configuration not stated)	-1.6	4	2%	-22	3
CC(C)(C)NC(=O)CN(C(=O)CS(=O)CC(=O)Nc1ccc(F)cc1)c1ccccc1F (configuration not stated)	4.6	13	0%	.	-1
COc1ccccc1NC(=O)C(C)OC(=O)COc1cccc2c1OC(C)(C)C2 (configuration not stated)	0.8	-11	.	.	.
COc1ccc(-c2oc3ccc(-c4ccc5c(c4)OCO5)cc3c2C#CC2(O)CCCCC2)cc1	-1.5	23	29%	.	.
COCCn1c(C2CCCCC2)nc2sc3ccccc3c(=O)c2c1=O	-2.6	-7	4%	-48	-5
Cc1cccc(NC(=O)CSCC(=O)Nc2sccc2C#N)c1	2.6	-1	.	.	.
O=C(Cc1ccc(Cl)c(Cl)c1)N1CCOCC1	-1.5	3	.	.	.
CN1CCN(CCOc2ccc(Cc3ccccc3)cc2)CC1	2.7	1	.	.	.
Cc1noc(NS(=O)(=O)c2ccc(NC(=O)c3nn(-c4ccccc4)ccc3=O)cc2)c1C	-0.6	55	.	.	.
CCOc1ccc(NC(=O)CCn2ccnc2)cc1	2.8	2	.	.	.
O=C(N/N=C/c1cc([N+](=O)[O-])ccc1O)c1cccc2cc[nH]c12	-4.6	3	12%	.	.

New compounds follow:
SMILES	RecA intein inh	Mtb bLac sens	Mtb growth	YopH inh	Arbovirus inh	others
Cc1cc(C(=O)Nc2ccc(C(=O)O)cc2)c(-c2ccccc2)o1	6.0	6	-5%	-23	3
CC1CCCC(C)N1CCCNC(=O)CN1C(=O)c2cccnc2Oc2ccc(Cl)cc21 (configuration not stated)	0.4	?	.	.	.
CCC(=O)N(CCC(Cc1ccccc1)c1ccco1)Cc1ccco1 (configuration not stated)	17	0	-2%	.	-9
Cc1ccc(NC(=O)CSC2=C(C#N)C(c3ccc4c(c3)OCO4)CC(=O)N2)cc1C (configuration not stated)	-0.8	.	52%	22	-20
CCn1c(SCC(=O)Nc2cc(Cl)ccc2OC)nnc1C1CC1	1.2	4	.	.	.
NC(=O)c1cc(N2C(=O)C3CC=CCC3C2=O)ccc1N1CCCCC1 (configuration not stated)	1.7	-17	-5%	-15	0	Arbovirus inh repeat=-1
CCCn1c(N2CCN(S(=O)(=O)Cc3ccccc3)CC2)nc2ccccc21	-0.3	-5	3%	-12	0
Cc1cccc(N/N=C(\C(N)=O)C2=NC(C)(C)Cc3ccccc32)c1	-1.8	35	18%	-10	-29
Clc1ccc(-c2csc(-c3ccno3)n2)cc1	2.5	6	-3%	.	.
Cc1ccc(NC(=O)CN(C)CC(=O)Nc2ccc(F)c(F)c2F)c(Cl)c1	-0.1	-15	-4%	.	2
O=C(c1ccc(S(=O)(=O)N2CCOCC2)cc1)N1CCN(c2ccccc2)CC1	1.2	6	-1%	-33	1	Arbovirus inh repeat=-1
CCn1c(C)c(/C=N/Nc2nc3ccccc3s2)c2ccccc21	0.6	54	8%	-24	9
Cc1ccc(S(=O)(=O)N2CCCCC2)cc1C(=O)Nc1ccc(N2CCOCC2)cc1	0.3	-3	-1%	-7	5
CC[n+]1c(/C=C/C=C/N(C(C)=O)c2ccccc2)sc2ccccc21	2.1	-12	-1%	-36	7
O=C(COc1ccccc1[N+](=O)[O-])OCC(=O)N1CCC(Cc2ccccc2)CC1	3.3	3	0%	4	-5
C=CCn1c(=O)c(C(=O)Nc2ccccc2O)c(O)c2ccccc21	3.1	1	-11%	13	16
O=C(C1CCC(=O)N1C1CCCCC1)N1CCC2(CC1)OCCO2 (configuration not stated)	0.3	-2	.	-34	2
CC(=O)Nc1ccc(S(=O)(=O)NC(CSc2ccc(C(=O)O)cc2[N+](=O)[O-])C(=O)O)cc1 (configuration not stated)	-3.3	3	.	.	.
CCOC(=O)Cn1nc(-c2ccc(C)cc2)ccc1=O	-0.9	?	-1%	9	-1
Cc1ccc(C2C(=O)N(C3CCCC3)CC(=O)N2C2CCCCC2)cc1 (configuration not stated)	5.9	-11	0%	-23	1
c1nc2sc3c(c2c2nnnn12)CCCC3	-0.8	-6	-6%	-20	12
CCCCC(CC)C(=O)Nc1ncc([N+](=O)[O-])s1 (configuration not stated)	22	1	-1%	.	-4
O=C1N/C(=C\c2ccccc2)C(O)=C1C=NCc1ccccc1	-0.9	-4	2%	-11	-13
COC(=O)Oc1ccc(/C=N/NC(=O)CSCc2ccc(Cl)cc2)cc1OC	4.7	85	78%	-27	-4
CNC(=O)N(O)C1N(/N=C/c2ccccc2OC)C(=S)SC1(C)C (configuration not stated)	-11	-6	.	.	.

6 records picked at random from the list so far, as already listed:
SMILES	RecA intein inh	Mtb bLac sens	Mtb growth	YopH inh	Arbovirus inh	others
CCCCC(CC)C(=O)Nc1ncc([N+](=O)[O-])s1 (configuration not stated)	22	1	-1%	.	-4
Cc1ccc(S(=O)(=O)N2CCCCC2)cc1C(=O)Nc1ccc(N2CCOCC2)cc1	0.3	-3	-1%	-7	5
O=C1N/C(=C\c2ccccc2)C(O)=C1C=NCc1ccccc1	-0.9	-4	2%	-11	-13
CCOC(=O)Cn1nc(-c2ccc(C)cc2)ccc1=O	-0.9	?	-1%	9	-1
c1nc2sc3c(c2c2nnnn12)CCCC3	-0.8	-6	-6%	-20	12
CC(=O)Nc1ccc(S(=O)(=O)NC(CSc2ccc(C(=O)O)cc2[N+](=O)[O-])C(=O)O)cc1 (configuration not stated)	-3.3	3	.	.	.

Other entries.
SMILES	RecA intein inh	Mtb bLac sens	Mtb growth	YopH inh	Arbovirus inh	others
Fc1ccc(F)c(C2=NNC(=NCC3CCCO3)SC2)c1 (configuration not stated)	-5.0	2	0%	.	3
CCOc1cccc2sc(N(CCCN(C)C)C(=O)c3ccc(S(=O)(=O)N(CC)Cc4ccccc4)cc3)nc12	12	66	.	.	.
CCCCOC(=O)C1=C(C)Nc2nnnn2C1c1ccccc1Cl (configuration not stated)	2.2	-6	-6%	-21	-5
c1cncc(-c2noc(-c3ccco3)n2)c1	-2.4	-16	4%	-39	7	Arbovirus inh repeat=-4
COc1ccc(OC)c(CN(CCCN2CCOCC2)C(=O)Nc2ccccc2)c1	-0.2	-10	-8%	8	18
COc1ccc(NC(=O)c2cc(S(=O)(=O)N3CCOCC3)cn2C)c(OC)c1	-1.7	-4	.	.	.
Cc1ccc(CNc2nc3ccccc3s2)s1	4.0	0	14%	-4	-7
N#Cc1cnc2ncnn2c1-c1ccccc1	0.3	-1	8%	-26	0
O=C(O)CSC1=NC(=Nc2cccc(Cl)c2)C2(CCCCC2)N1c1ccccc1	1.1	6	5%	-10	0
CCc1ccc(-c2cc(C)no2)cc1S(=O)(=O)NCCCN1CCN(c2ccccc2)CC1	3.8	93	.	.	.
Cn1cc(S(=O)(=O)CC(=O)Nc2ccc3c(c2)OCO3)c2ccccc21	-2.5	-7	-7%	-27	12	Arbovirus inh repeat=-2
O=C(CN1CCCc2ccccc21)NCc1ccc2c(c1)OCO2	-2.5	0	5%	12	-11
CCOC(=O)c1c(S(=O)(=O)N(C)Cc2ccco2)c(C)n(C)c1C	2.0	-6	.	.	.
Cc1ccc(O)c(N/C=C/C(=O)c2ccc(F)cc2)c1	-2.3	4	.	.	.

4 entries already listed, arranged by count of non-hydrogen atoms, descending.
SMILES	RecA intein inh	Mtb bLac sens	Mtb growth	YopH inh	Arbovirus inh	others
CCc1ccc(-c2cc(C)no2)cc1S(=O)(=O)NCCCN1CCN(c2ccccc2)CC1	3.8	93	.	.	.
COc1ccc(OC)c(CN(CCCN2CCOCC2)C(=O)Nc2ccccc2)c1	-0.2	-10	-8%	8	18
O=C(O)CSC1=NC(=Nc2cccc(Cl)c2)C2(CCCCC2)N1c1ccccc1	1.1	6	5%	-10	0
Cc1ccc(CNc2nc3ccccc3s2)s1	4.0	0	14%	-4	-7
